# EPAC2 antag = validation of human EPAC2 antagonists; Q8WZA2; actives 1.7% (n = 16,000); Potency, µM (series often up to 112 µM), without a hit: at the highest dose activity, negative = inhibition, actives largely listed as inhibitors; EPAC2 Rap1B BODIPY-GDP exchange, fluorescence; AID 1645886; active = well fitted inhibition curve with a large enough effect; inconclusive = small, poorly fitted or top-dose-only effect; inactive = no such curve, though single readings can be large or run the other way;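 note: 100% = activation by cAMP agonist control; nearly all actives have a fitted effect of over 40% in size; the record reuses the description of the EPAC1 agonist screen; inactives centre near -10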
# Target sequence (Q8WZA2 whole entry, looked up): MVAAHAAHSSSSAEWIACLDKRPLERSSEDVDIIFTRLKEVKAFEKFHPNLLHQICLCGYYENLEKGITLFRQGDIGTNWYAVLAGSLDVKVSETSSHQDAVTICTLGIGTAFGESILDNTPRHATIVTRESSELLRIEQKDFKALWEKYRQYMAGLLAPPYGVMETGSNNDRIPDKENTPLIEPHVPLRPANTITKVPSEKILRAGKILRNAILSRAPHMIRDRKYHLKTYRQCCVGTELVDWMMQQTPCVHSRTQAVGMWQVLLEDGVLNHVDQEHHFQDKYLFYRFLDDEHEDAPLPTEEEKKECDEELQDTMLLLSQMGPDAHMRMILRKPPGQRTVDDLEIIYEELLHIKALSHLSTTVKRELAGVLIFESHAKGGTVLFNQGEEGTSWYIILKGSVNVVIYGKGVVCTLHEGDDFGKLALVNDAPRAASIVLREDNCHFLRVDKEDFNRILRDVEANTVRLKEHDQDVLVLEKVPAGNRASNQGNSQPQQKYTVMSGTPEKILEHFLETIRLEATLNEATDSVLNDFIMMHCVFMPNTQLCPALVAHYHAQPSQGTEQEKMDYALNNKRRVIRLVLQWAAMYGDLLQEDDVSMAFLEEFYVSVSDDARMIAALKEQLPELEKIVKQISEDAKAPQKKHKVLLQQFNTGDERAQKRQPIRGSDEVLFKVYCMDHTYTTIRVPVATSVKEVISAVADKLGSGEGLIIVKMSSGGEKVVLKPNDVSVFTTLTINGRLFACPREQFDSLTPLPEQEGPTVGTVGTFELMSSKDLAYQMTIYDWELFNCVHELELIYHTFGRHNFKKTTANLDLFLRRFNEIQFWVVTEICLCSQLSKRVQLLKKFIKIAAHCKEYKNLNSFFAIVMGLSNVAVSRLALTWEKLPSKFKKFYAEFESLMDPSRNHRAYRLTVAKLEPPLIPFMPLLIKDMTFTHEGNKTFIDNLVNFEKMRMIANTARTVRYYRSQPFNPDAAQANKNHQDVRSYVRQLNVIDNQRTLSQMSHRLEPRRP
#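 Fluorescent exchange read-out: 100 nM EPAC2 with 250 nM RAP1B–BODIPY-GDP and 50 uM GDP; BODIPY-GDP release lowers fluorescence. Read at 480/540 nm every 5 min for 30 min at room temperature; normalized to 6.5 mM cAMP.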
# * hit, by the source's call; ? = inconclusive; & = joins results of further samples; [ ] = dose if it differs, or a comment. Potency is the fitted concentration of half-maximal effect. These rows are one share of the data; count on the stated rates, not on these rows.
item	SMILES	EPAC2 antag
1	COc1cccc(-c2nc(NCc3cccnc3)c3ccccc3n2)c1	-20%
2	COc1cccc(C=NC=Nc2cccc(OC)c2)c1	?
3	N[C@H](C(=O)O)C1[C@H](C(=O)O)[C@H]1C(=O)O (some centres undefined)	-13%
4	O=C(C[n+]1cccc2cc(Cl)ccc21)c1ccc(Br)cc1	-26%
5	NC(=O)CC[C@@H]1NC(=O)[C@H](Cc2ccccc2)NC(=O)[C@H](Cc2ccc(O)cc2)NC(=O)[C@@H](N)CSSC[C@@H](C(=O)N2CCC[C@H]2C(=O)N[C@@H](CCCN=C(N)N)C(=O)NCC(N)=O)NC(=O)[C@H](CC(N)=O)NC1=O	-14%&11%
6	C[C@@H](CC(=O)O)[C@@H](N)C(=O)O	4%&-11%
7	O=c1c(-c2ccccc2)nc2cnc(N3CCNCC3)nc2n1C1CC1	-8%
8	Cc1cc(N(C)C)cc(C)c1/C=C/c1ccnc2ccccc12	-23%
9	CC(CC(O)C1OC1(C)C)C1CCC2(C)C3=CCC4C(C)(C)C(=O)CCC4(C)C3CC[C@@]12C (some centres undefined)	-21%
10	Cc1cnc(CNc2nc(-c3ccc(N(C)C)cc3)nc3ccccc23)cn1	-23%
11	C[C@](N)(COP(=O)(O)O)C(=O)O	-17%
12	CC(=O)OCC(=O)[C@]1(O)C(OC(C)=O)CC2C3CCC4=CC(=O)C=C[C@@]4(C)[C@]3(F)C(O)C[C@]21C (some centres undefined)	-4%
13	COc1ccc(Cl)cc1N1C(=O)[C@@H]2C[C@H]1CN2Cc1nc2ccccc2nc1C	-4%
14	O=c1cc(-c2ccc(O)c(O)c2)oc2ccccc12	-19%
15	Cc1cnc(CNc2nc(-c3ccc(C(=O)N(C)C)cc3)nc3ccccc23)cn1	-22%
16	CC(=O)Nc1ccc(/C=C/c2ccccn2)cc1	?
17	COc1cccc(Cn2c(=O)c(C)nc3cnc(Nc4cccc(OC)c4)nc32)c1	-9%
18	COC(=O)C(O)C1C(C)(C)C(OC(C)=O)C2CC3=C4CC(=O)OC(c5ccoc5)[C@]4(C)CCC3[C@@]1(C)C2=O (some centres undefined)	-6%
19	CCC(C(=O)OCCN(CC)CC)c1ccccc1 (centres undefined)	-10%
20	COc1ncc2nc(CCc3ccccc3)c(=O)n(-c3ccccc3)c2n1	-44%
21	O=[N+]([O-])c1cccc(CN2C[C@@]34C=C[C@@H](C[C@@H]3S2(=O)=O)O4)c1	?
22	COCCn1c(=O)cnc2cnc(N3CCNCC3)nc21	-9%
23	O=C1CCC[C@@H]2Cc3nc4ccc(Cl)cc4cc3[C@@H]3CCN1[C@H]23	?
24	Cc1ncc2c(c1CNC(=O)c1ccc3c(c1)OCO3)CCN(C(=O)c1cn3ccccc3n1)C2	-2%
25	COc1cccc(CNC(=O)c2c(OC)cc(=O)n3c2CCN(C(=O)c2ccc(C)s2)CC3)c1	-8%
26	COc1ccc2c(c1OC)C(=O)O[C@H]2C1c2c(cc3c(c2OC)OCO3)CCN1C (some centres undefined)	-26%&-21%
27	N#Cc1ccccc1-c1ccc2ncnc(NCc3ccccc3)c2c1	-34%
28	O=c1cnc2cnc(Oc3ccccc3)nc2n1Cc1ccc(F)cc1	?
29	Cc1csc(SCC(=O)NCC2Cc3cc(-c4cncnc4)ccc3O2)n1 (centres undefined)	?
30	NNc1nnc(NN)c2ccccc12	19%

# Reprinted from the part before: 4 compounds, followed by the next part.
item	SMILES	EPAC2 antag
27	N#Cc1ccccc1-c1ccc2ncnc(NCc3ccccc3)c2c1	-34%
28	O=c1cnc2cnc(Oc3ccccc3)nc2n1Cc1ccc(F)cc1	?
29	Cc1csc(SCC(=O)NCC2Cc3cc(-c4cncnc4)ccc3O2)n1 (centres undefined)	?
30	NNc1nnc(NN)c2ccccc12	19%
31	Cc1c(-c2ccccc2)oc2c(C(=O)OCCN3CCCCC3)cccc2c1=O	?
32	CC(=O)Nc1ccc(/C=N/NC(N)=S)cc1	7%&6%
33	CCCOC(=O)C1NC(=O)N2C(C(=O)OCCC)C(C)(C)S[C@H]12 (some centres undefined)	-26%
34	O=C(c1ccncc1)N1CCC2(CC1)CCN(c1ncccn1)CC2	-15%
35	CC(C)[N+]1(C)[C@@H]2CC[C@H]1CC(OC(=O)[C@@H](CO)c1ccccc1)C2 (some centres undefined)	-21%
36	NC(N)=NCC1COC2(CCCCC2)O1 (centres undefined)	-4%[56.6 µM]
37	O=C(c1cccc(F)c1F)N1CCOc2ccc(CN3CCC(Oc4cccnc4)CC3)cc2C1	-28%
38	NC(CCC(=O)NCS(=O)(=O)O)C(=O)O (centres undefined)	-4%
39	Cc1cccc(C(=O)NCc2nc(-c3ccccc3NC(=O)C3CCCO3)oc2C)c1 (centres undefined)	-5%
40	O=C(NCCCCCCNC(=O)ON=C1CCCCC1)ON=C1CCCCC1	-8%[151 µM]
41	NCCCCC(=O)O	-14%&3%
42	COc1cccc(-c2ccc3ncnc(N(C)Cc4ccco4)c3c2)c1	?
43	O=C(O)c1cc(=O)c2ccccc2[nH]1	-1%&-13%&-19%&-29%
44	COc1cccc(Cn2c(=O)c(-c3cccs3)nc3cnc(Nc4cccc(OC)c4)nc32)c1	-3%
45	O=C1N=C(O)CN1/N=C\c1ccc(-c2ccc([N+](=O)[O-])cc2)o1	?
46	CC(C)=CCc1c2c(c3occ(-c4ccc(O)c(O)c4)c(=O)c3c1O)C=CC(C)(C)O2	25µM*
47	CCc1nnc(NS(=O)(=O)c2ccc(N)cc2)s1	2%
48	C=CCCCCCCCCCCC/C=C/C(O)COC(C)=O (centres undefined)	?
49	COc1cc(=O)n2c(c1C(=O)NCc1ccco1)CCN(Cc1ccc(F)cc1Cl)CC2	-12%
50	CC(=O)c1c(O)c(C)c(O)c2c1OC1=CC(=O)C(C(C)=O)C(=O)C12C (centres undefined)	-15%
51	COCCn1c(=O)c(-c2ccccc2)nc2cnc(Nc3cccc(OC)c3)nc21	11%
52	CC(=O)OCC(=O)C1CCC2C3CC=C4CC(O)CC[C@@]4(C)C3CC[C@]12C (some centres undefined)	-8%
53	CN(Cc1ccco1)c1nc(-c2ccccc2C(F)(F)F)nc2ccccc12	?
54	COc1ccccc1-c1ccc2ncnc(NCc3cccnc3)c2c1	-4%
55	Cc1cc(=O)cc2oc3cc(N)c(-c4c(C)cc(O)cc4O)c(C)c3nc1-2	-4%
56	CN(C)c1nc(-c2ccoc2)nc2ccccc12	-8%
57	COc1ncc2ncc(=O)n(C[C@H]3CCCO3)c2n1	6%
58	CCNc1ncc2nc(CCc3ccccc3)c(=O)n(C)c2n1	-1%
59	CCN(CC)CCOC(=O)c1cccnc1	7%
60	Cc1nc2cnc(N3CCNCC3)nc2n(CCC#N)c1=O	-11%
61	COc1ccc(C(=O)N2CCC3(CC2)CCN(c2ncccn2)CC3)cc1	-17%
62	CC(O)(COc1ccccc1)c1ccc2c(c1)CN(Cc1cccnc1)CCO2 (centres undefined)	-7%
63	COc1cccc(-c2nccc(NC3CCNCC3)n2)c1	-10%
64	Cc1cn(C2CC(N=[N+]=[N-])C(CO)O2)c(=O)[nH]c1=O (centres undefined)	-14%
65	Cc1noc(C)c1C(=O)N1CCC2(CC1)CN(c1cccc(-c3ccccc3)c1)C2	-23%
66	COc1ccc(-c2cc(=O)c3c(O)cc(O)cc3o2)cc1	-15%&-11%
67	CS(=O)(=O)Nc1cccc(-c2nc(NCc3cccs3)c3ccccc3n2)c1	-19%
68	COCC(=O)N1CCC2(CC1)CCN(c1ccccn1)CC2	-11%
69	COc1ccccc1N1CCN(c2nc(CNC(=O)c3ccc(C)c(C)c3)nc3ccccc23)CC1	-1%
70	O=C1CCC[C@@H]2C[C@@]3(C[C@@H]4CCN1[C@H]24)Nc1cc(Cl)ccc1NC3=NC1CCCCC1	-18%
71	C[C@@H]1C[C@H]2[C@@H]3C[C@H](F)C4=CC(=O)C=C[C@]4(C)[C@@]3(F)[C@@H](O)C[C@]2(C)[C@@]1(O)C(=O)CO	5%[56.6 µM]
72	COc1ccccc1C1CN(CCNC(=O)c2cscn2)Cc2ccccc2O1 (centres undefined)	-47%
73	CC(=O)O[C@]1(C(C)=O)CC[C@H]2[C@@H]3C[C@H](C)C4=CC(=O)CC[C@]4(C)[C@H]3CC[C@@]21C	-25%
74	COc1c(CO)cc(CO)cc(CO)c1=O	6%
75	N[C@@H](Cc1cc(-c2ccc(Cl)cc2Cl)cc(CP(=O)(O)O)c1O)C(=O)O	23%
76	Cn1cc(C(F)(F)F)nc1-c1ccc(OCC(O)CNCCOc2ccc(O)c(C(N)=O)c2)cc1 (centres undefined)	?
77	Cn1c(SCC2CCCO2)nnc1C1CCN(Cc2ccco2)CC1 (centres undefined)	19%
78	O=c1c(-c2ccc(F)cc2)nc2cnc(Oc3ccccc3)nc2n1C1CC1	4%
79	C(=C\c1ccnc2ccccc12)/c1ccnc2ccccc12	-34%
80	CC(C)C[C@@H](C=O)NC(=O)[C@H](CC(C)C)NC(=O)[C@H](CC(C)C)NC(=O)OCc1ccccc1	2%
81	COc1cccc(Nc2ncc3nc(-c4ccc(F)cc4)c(=O)n(CCC#N)c3n2)c1	-19%
82	Cc1cnc(CNc2ncncc2-c2ccc3c(c2)OCO3)cn1	-16%
83	C[N+](C)(C)CC(O)CC(=O)[O-] (centres undefined)	-3%
84	C[N+]1(C)CCN(CC(O)(c2ccccc2)C2CCCCC2)CC1 (centres undefined)	13%
85	C=CC(=O)c1ccc2ccccc2c1	-19%
86	O=C(NCc1ccon1)c1ccc(-c2csc3ccccc23)nc1N1CCC(N2CCCC(CO)C2)CC1 (centres undefined)	?
87	O=C1CCN(CCc2ccccc2)CCN1[C@H](COc1ccccc1)Cc1ccccc1	?
88	Cc1ncc(CO)c(CN)c1O	14%
89	COCC(=O)Nc1cc(Sc2ccccc2)ccc1N=C(NC(=O)OC)NC(=O)OC	-18%
90	CC[N+](C)(C)c1ccc(/C=C/c2ccnc3ccccc23)cc1	45µM*

# The list continues.
item	SMILES	EPAC2 antag
91	C[C@@H]1CN(Cc2ccc3c(c2)CN(C(=O)CCc2nc4ccc(F)cc4[nH]2)CCO3)C[C@H](C)O1	?
92	COc1ccc(-c2oc3cc(OC)ccc3c(=O)c2O)cc1	-14%
93	C[C@H]1C[C@H]2[C@@H]3CCC4=CC(=O)C=C[C@]4(C)[C@@]3(F)[C@@H](O)C[C@]2(C)[C@@]1(O)C(=O)CCl	?
94	O=c1cnc2cnc(Oc3cccc(Cl)c3)nc2n1CCc1ccccc1	-33%
95	COc1ccccc1C1CN(Cc2cn(C)nc2C)Cc2ccccc2O1 (centres undefined)	-25%

# Compounds shown so far that have a COOH group (7):
item	SMILES	EPAC2 antag
3	N[C@H](C(=O)O)C1[C@H](C(=O)O)[C@H]1C(=O)O (some centres undefined)	-13%
6	C[C@@H](CC(=O)O)[C@@H](N)C(=O)O	4%&-11%
11	C[C@](N)(COP(=O)(O)O)C(=O)O	-17%
38	NC(CCC(=O)NCS(=O)(=O)O)C(=O)O (centres undefined)	-4%
41	NCCCCC(=O)O	-14%&3%
43	O=C(O)c1cc(=O)c2ccccc2[nH]1	-1%&-13%&-19%&-29%
75	N[C@@H](Cc1cc(-c2ccc(Cl)cc2Cl)cc(CP(=O)(O)O)c1O)C(=O)O	23%

# Assay outcomes deposited in PubChem BioAssay by National Center for Advancing Translational Sciences (NCATS).
